gsp antag = antagonists of gsp mutant (McCune-Albright syndrome); AID 624288; 340,000 tested, 0.4% active; gsp-mutant cells, cAMP HTRF, 30 min; control for the full effect not named in the record; Potency, µM (top dose mostly 76.9 µM), for inactives: at the top dose activity change, negative = inhibition, most hits filed as inhibitors; active = falling curve of any shape with a large fitted effect; inconclusive = falling curve, mostly with a smaller effect; inactive = flat or rising curve; cell line not stated here;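 further: intracellular cAMP measured with PDE inhibitor Ro 20-1724 present during compound exposure; potency means the concentration at half of the fitted maximal effect; on the % scale 0 is the no-effect control and ±100 the full control effect; nearly all actives have a fitted effect of over 65% in size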
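Cells, 2000/well, grown 16–24 h in DMEM 10% FBS with 0.5 mg/ml G418, then compounds plus […] (300 uM addition stock), 30 min at 37C. cAMP read by HTRF (cAMP-d2 and anti-cAMP antibody-K in lysis buffer) after 30 min RT.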
TRPV1 PAM = human TRPV1 potentiation; potentiation, % at 8.33 µM; Q8NER1; AID 540277; TRPV1-expressing cells, Fluo-8 calcium influx, capsaicin EC20 potentiation; host cell line not named in the record; control for the full effect not named in the record; 320,000 tested, 0.02% active; active means potentiation above 80%; inconclusive means 30% to 80%; inactive means below 30%; further: 0% is about no effect
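TRPV1-expressing cells were cultured overnight at 35.5C and loaded with Fluo-8 calcium dye for 40 to 90 min at room temperature. After a 10 s baseline, compound was added and calcium influx was read kinetically for 3 min (ex 480/em 520 nm).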
Sfp inh = blocks B. subtilis Sfp PPTase activity | Q9F4F7 | Biochemical Sfp PPTase activity, qHTS | Potency, µM, for the others: max response, negative = inhibition, most hits filed as inhibitors | 310,000 tested, 3.5% active; active means well fitted inhibition curve with a large enough effect; inconclusive means small, poorly fitted or top-dose-only effect, or another doubt; inactive means no such curve, though single readings can be large or run the other way;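 further: the enzyme is Sfp with the accession as filed and its product quenches rhodamine fluorescence; potency means the concentration at half of the fitted maximal effect; 0% = enzyme reaction without inhibitor and -100% = no enzyme wells; top concentration of the series not given in the record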
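Fluorescence-quenching assay with 15 nM Sfp, 5 uM rhodamine-CoA and 12.5 uM BHQ-2-labelled ybbR peptide in pH 7.6 Hepes/MgCl2 buffer. Enzyme was pre-incubated with compound for 15 min at room temperature. Rate was taken from the 30-min fluorescence change (525/598 nm).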
ClpP mod = qHTS Assay for Activators of ClpP; purified B. subtilis ClpP, FRET peptide cleavage, 20 min; Potency, µM (series often up to 57.5 µM), inactives show at the highest dose activity change, negative = active; 340,000 tested, 1.9% active; AID 651965, 2013; active = well fitted falling curve with a large enough effect; inconclusive = small, poorly fitted or top-dose-only effect; inactive = no such curve, though single readings can be large or run the other way; further: potency means the concentration at half of the fitted maximal effect; the source files actives as falling curves though it sought activators and does not explain the sign; nearly all actives have a fitted effect of over 65% in size; many hits overshoot -100%
Target sequence (P80244 whole entry, looked up): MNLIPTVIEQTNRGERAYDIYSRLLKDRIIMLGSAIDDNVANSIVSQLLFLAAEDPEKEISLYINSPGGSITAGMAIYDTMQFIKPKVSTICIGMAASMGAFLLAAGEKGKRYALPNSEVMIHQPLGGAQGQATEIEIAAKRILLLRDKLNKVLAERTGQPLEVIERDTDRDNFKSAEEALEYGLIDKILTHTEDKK
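Purified B. subtilis ClpP, 10 microg/mL final in Tris/HCl pH8 with KCl, BSA, glycerol and Tween-20, cleaved an Abz/nitrotyrosine-quenched decapeptide. Fluorescence (ex 320, em 430) was read at 0 and 20 min at room temperature. Delta was normalized to 5.8 microM ADEP and DMSO/no-enzyme controls.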
TRPML1 blocker = inhibitors of human TRPML1 channel. Q9GZU1. TRPML1-inducible cells, Ca2+ dye fluorescence, FDSS; hits give low values; inhibition of EC80 agonist-evoked calcium signal. activity change, negative = inhibition, % (no concentration beside the values). 390,000 tested, 0.02% active; in the data active means activity change below about -50%; inconclusive means about -30% to -50%; inactive means above about -30%;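 further: stimulus is agonist 54-4 at its EC80 concentration; on the % scale 0 is the no-effect control and ±100 the full control effect; compound concentration not given in the record; the text of the record puts the active cut at -80%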
Target sequence (Q9GZU1 whole entry, looked up): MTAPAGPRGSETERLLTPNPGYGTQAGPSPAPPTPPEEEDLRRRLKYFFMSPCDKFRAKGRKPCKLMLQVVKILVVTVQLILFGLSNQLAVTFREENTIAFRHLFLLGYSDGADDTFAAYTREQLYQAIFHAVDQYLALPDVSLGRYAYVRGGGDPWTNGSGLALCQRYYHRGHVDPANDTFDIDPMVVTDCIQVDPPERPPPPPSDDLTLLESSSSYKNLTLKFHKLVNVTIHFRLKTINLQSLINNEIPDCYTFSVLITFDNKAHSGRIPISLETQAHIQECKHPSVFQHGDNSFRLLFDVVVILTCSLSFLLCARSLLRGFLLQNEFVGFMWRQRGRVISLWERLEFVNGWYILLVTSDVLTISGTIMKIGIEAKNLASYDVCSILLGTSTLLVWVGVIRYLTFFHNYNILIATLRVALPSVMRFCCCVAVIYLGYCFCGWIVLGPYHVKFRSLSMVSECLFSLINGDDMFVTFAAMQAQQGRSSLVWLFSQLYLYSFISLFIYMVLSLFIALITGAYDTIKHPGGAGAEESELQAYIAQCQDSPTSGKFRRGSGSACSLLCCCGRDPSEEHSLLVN
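Calcium fluorescence in TRPML1-DL cells induced overnight with Tet: a 110 s read after compound pin addition, then a 110 s antagonist read after challenge with 54-4 at 4 uM final (EC80).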
Menin MLL FP FL = menin-MLL binding inhibition, fluorescein peptide. Fluorescence polarization, fluorescein-MLL peptide displacement from menin. FP activity change, % at 61.4 µM. 290,000 tested, under 10 active. AID 1766; inconclusive = falling polarisation curve, or a change in total fluorescence; inactive = total fluorescence flat and polarisation flat or rising; no compound was filed as active; the % refers to the polarisation; negative = inhibition;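 further: % of control where 0% means no effect; inhibitors lower the polarisation; unlabelled MLL peptide was the positive control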
gsp agonist = agonists of gsp mutant (McCune-Albright syndrome). gsp mutant cells, cAMP HTRF, 30 min; control for the full effect not named in the record. Potency, µM (series often up to 76.9 µM), for the others: at the highest dose activation (cAMP increase), actives largely listed as activators. 340,000 tested, 0.13% active. AID 624287; active = well fitted activation curve with a large enough effect; inconclusive = small, poorly fitted or top-dose-only effect, or another doubt; inactive = no such curve, though single readings can be large or run the other way; cell line not stated here;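 further: phosphodiesterase inhibitor Ro 20-1724 added with compounds to block cAMP breakdown; potency means the concentration at half of the fitted maximal effect; nearly all actives have a fitted effect of over 60% in size; about a fifth of the inactives were tested at one dose only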
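Cells in DMEM/10% FBS with G418 were pretreated with compounds in DMSO plus […] (300 uM stock) for 30 min at 37C. cAMP was measured by HTRF (cAMP-d2 plus anti-cAMP antibody-K) after 30 min at room temperature.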
An asterisk follows results filed as active; u = inconclusive; x = not tested or not shown; [ ] = dose if it differs, or a comment.

SMILES	gsp antag	TRPV1 PAM	Sfp inh	ClpP mod	TRPML1 blocker	Menin MLL FP FL	gsp agonist
CCOC(=O)CSc1nc2cc(C(=O)NCC3CCCO3)ccc2c(=O)n1Cc1ccco1 (configuration not stated)	-18%	-9	7%	1.2%	-4	0.8	-15%
CCC(=O)N(Cc1cc(=O)[nH]c2ccccc12)c1ccc(C)cc1C	16%	2	-17%	-13%	44	-0.9	u
CC(=O)Nc1c(C(=O)N2CCOCC2)cnn1-c1ccc(C)c(C)c1	-3%	-3	6%	-1.3%	-17	5.9	-10%
Cc1ccc(C(=O)CC2SC(N)=NC2=O)cc1 (configuration not stated)	0%	16	16%	-2.2%	-9	1.5	2%
COc1cc(NC(=O)CN(C)S(=O)(=O)c2ccc3c(c2)CC(C)N3C(C)=O)cc(OC)c1 (configuration not stated)	2%	-5	8%	0.4%	-1	x	8%
Cc1cccc(OC(=O)c2sc(Cl)nc2C)c1	-9%	3	5%	0.6%	16	2.5	u
Cc1cc(C)c2c(c1)c1nnc(SCCN3CCOCC3)nc1n2C	-7%	11	4%	2.5%	-14	6.4	-12%
COc1ccc2nc(Nc3nc4ccc(NC(C)=O)cc4s3)sc2c1	u	-1	u	u	39	4.7	-17%
CCC(=O)N1CCN(c2ccc(NC(=O)c3cc4ccccc4o3)cc2Cl)CC1	20µM*	-8	-2%	-3.7%	11	0.4	6%
O=C1CCCN1CCC(=O)N1CCCC(N2CCN(c3ccccc3F)CC2)C1 (configuration not stated)	6%	8	0%	1.2%	-8	x	-6%[15.4 µM]
CN(C(=O)c1ccccc1Br)C1CCS(=O)(=O)C1 (configuration not stated)	3%	-3	x	x	-13	x	6%[15.4 µM]
COc1ccc(NC(=O)c2cc3c(=O)n(C)c4ccccc4c3s2)cc1OC	11%	-11	-8%	x	1	13	7%[15.4 µM]
CCCCc1nc(Cl)c(C#N)c2c1CCCC2	-1%	-6	7%	0.9%	-10	0.7	4%
NC(=O)c1cc(NC(=O)CCCc2nc3ccccc3s2)cc(C(N)=O)c1	5%	6	14%	x	-18	u	6%[15.4 µM]
CC(NC(=O)COC(=O)c1c[nH]c2ccccc12)c1ccccc1 (configuration not stated)	-5%	x	x	-2.5%	26	x	-3%[15.4 µM]
COC(=O)c1ccccc1OCCOc1ccccc1C(=O)OC	-17%	-6	23%	-6.0%	0	-2.7	1%
COc1ccc(N2CCN(CCNC(=O)CCS(=O)(=O)c3cccc4nsnc34)CC2)cc1	x	5	-9%	x	x	1.4	x
CCCCN1CCC(=O)C(C(=O)OCC)=C1C(=O)OCC	-4%	x	x	1.1%	11	x	x
C=CCNC(=S)NNC(=O)CCC(O)COCCC(C)C (configuration not stated)	x	-3	0%	x	6	-1.3	-12%[15.4 µM]
COc1ccccc1Cn1c(=S)[nH]c2cc(C(=O)NCC(OC)OC)ccc2c1=O	u	-4	7%	-1.8%	-1	-4.3	29%
CSc1ccc(Cc2ccc(Cl)cc2Cl)nn1	10%	-18	7%	-1.4%	1	-1.8	-55%[inhibitor]
C=CCOc1c(CNc2ccc(S(N)(=O)=O)cc2)cccc1OC	-7%	-1	9%	-2.2%	16	0.8	-16%
COc1ccc(CNC(=O)CN(C(=O)c2csnn2)c2cccc(F)c2)cc1	8%	12	17%	x	30	-2.6	13%
O=C(NCc1ccccc1)c1ncn[nH]1	6%	21	-3%	-0.1%	x	2.8	-5%
O=C(NCC(c1cccnc1)N1CCN(c2ccc(F)cc2)CC1)c1ccc(F)cc1 (configuration not stated)	7%	x	4%	-1.9%	-7	-3.5	-46%[inhibitor]
COC(=O)c1cc(-c2c(C)oc3cc(O)ccc3c2=O)c(C)o1	-9%	-6	15%	25µM*	-11	4.5	-27%
CC1CC(=O)Nc2ccccc2N1S(=O)(=O)c1cccc(F)c1 (configuration not stated)	7%	-8	21%	x	-1	-0.6	-9%
O=C(c1ccco1)N1CCN(c2ccc([N+](=O)[O-])cn2)CC1	u	x	x	1.4%	32	x	-16%
Cc1ccc(C(=O)N/C(=C/c2cccs2)C(=O)N2CCCCCC2)cc1	0%	-29	-9%	-0.2%	9	3.6	-29%
O=C(CN1CCOCC1)Nc1c2c(nc3c1CCC3)CCC2	1%[15.4 µM]	-6	7%	-0.3%	20	6.0	4%
CCn1c(SCC(=O)Nc2cc(NC(C)=O)ccc2OC)nnc1-c1ccccn1	-4%	4	11%	1.2%	-11	0.0	-2%
O=C(COc1ccccc1)Nc1ccc(S(=O)(=O)NCc2ccco2)cc1	-5%	1	-7%	-1.3%	-17	3.6	-43%[inhibitor]
O=C(CSc1nc2ccccc2n1-c1ccccc1)Nc1ncc(Cl)cc1Cl	-19%	7	10%	-2.0%	0	5.1	9%
Cc1cc(C)c2cc(CN(CCO)C(=O)Nc3ccc(Cl)cc3)c(=O)[nH]c2c1	3%	-7	16%	u	17	8.8	-49%[inhibitor]
Cc1ccc(Cn2ncc3c(N4CCN(C)CC4)ncnc32)cc1	14%	-1	-21%	-0.2%	5	-1.9	-1%[15.4 µM]
OC(c1ccc(Cl)cc1)c1nccc2ccccc12 (configuration not stated)	-12%	6	1%	-1.4%	15	-0.9	5%
CC(C)c1nnc(NC(=O)CSc2nc3ccccc3[nH]2)s1	-3%	u	-16%	x	21	2.6	24%
Cc1onc(-c2ccccc2Cl)c1C(=O)N1CCN(S(=O)(=O)c2ccc(F)c(F)c2)CC1	0%	9	8%	-3.5%	7	-3.6	3%[15.4 µM]
Cc1cc(C)n(CCNC(=O)CC2C(=O)NCCN2CC2CCCCC2)n1 (configuration not stated)	-10%	2	11%	x	13	-9.8	-9%[15.4 µM]
CCOC(=O)CSc1nnc(CNC(=O)c2cc(OC)c(OC)c(OC)c2)n1C	5%	9	-2%	1.3%	14	1.3	u
Cc1ccc(C)c(Cn2c3ccccc3c3cnn(CC(=O)NCCN4CCOCC4)c(=O)c32)c1	5%	6	5%	3.4%	85	-0.6	17%
O=S(=O)(Cc1ccccc1)N1CCCC1	6%	-14	13%	-0.2%	-5	-0.4	u
O=C(CSC1=NS(=O)(=O)c2ccccc2N1)Nc1ccccc1F	0%	2	x	-1.3%	-5	x	10%[15.4 µM]
COC1CCCCC1Nc1cc(C)cc(C)c1 (configuration not stated)	-4%	6	-8%	0.3%	-10	-1.1	-18%
CCOC(=O)N1CCN(CCC(=O)Nc2ccc(F)c(F)c2)CC1	8%	20	16%	-1.4%	4	0.8	-1%[15.4 µM]
O=C(CC1CCCCC1)NCCS(=O)(=O)N1CCN(c2ccccc2)CC1	12%	5	x	x	1	x	1%[15.4 µM]
CC(=O)N1CC(=O)N(CC(=O)Nc2ccc(Br)cc2)C1=S	5%	-3	5%	x	-15	-3.4	-23%
COc1cc(SC)ccc1C(=O)Nc1ccc(Cl)cn1	x	5	11%	x	-3	0.8	-26%[15.4 µM]
C#CCOCCOCCOCCNc1nc(N2CCOCC2)nc(N2CCN(C(=O)[C@H](CCC(=O)O)n3cc(C(N)[C@H](C)CC)nn3)CC2)n1 (some centres not stated)	9%	14	-3%	0.1%	-1	1.6	-85%[inhibitor]
COC(=O)CCCC1=CC2=C(c3ccccc3)C(=O)C(C)(OC(=O)C3CCCC3)C(=O)C2=CN1CCc1c[nH]c2ccccc12 (configuration not stated)	-12%	23	u	0.5%	6	1.8[11.7 µM]	x

Given in markdown: part of the list above.
| canonical_smiles | gsp antag | TRPV1 PAM | Sfp inh | ClpP mod | TRPML1 blocker | Menin MLL FP FL | gsp agonist |
| --- | --- | --- | --- | --- | --- | --- | --- |
| O=C(CSC1=NS(=O)(=O)c2ccccc2N1)Nc1ccccc1F | 0% | 2 | x | -1.3% | -5 | x | 10%[15.4 µM] |
| COC1CCCCC1Nc1cc(C)cc(C)c1 (configuration not stated) | -4% | 6 | -8% | 0.3% | -10 | -1.1 | -18% |
| O=C(CC1CCCCC1)NCCS(=O)(=O)N1CCN(c2ccccc2)CC1 | 12% | 5 | x | x | 1 | x | 1%[15.4 µM] |
| CCOC(=O)N1CCN(CCC(=O)Nc2ccc(F)c(F)c2)CC1 | 8% | 20 | 16% | -1.4% | 4 | 0.8 | -1%[15.4 µM] |
| COc1cc(SC)ccc1C(=O)Nc1ccc(Cl)cn1 | x | 5 | 11% | x | -3 | 0.8 | -26%[15.4 µM] |
| COC(=O)CCCC1=CC2=C(c3ccccc3)C(=O)C(C)(OC(=O)C3CCCC3)C(=O)C2=CN1CCc1c[nH]c2ccccc12 (configuration not stated) | -12% | 23 | u | 0.5% | 6 | 1.8[11.7 µM] | x |

(further entries)
SMILES	gsp antag	TRPV1 PAM	Sfp inh	ClpP mod	TRPML1 blocker	Menin MLL FP FL	gsp agonist
CC(C)CC1NC(=O)c2cc3ccccc3cc2-n2c1nc1ccc(F)cc1c2=O (configuration not stated)	x	x	x	1.3%	2	x	-2%
O=C1COc2ccc(C(=O)/C=C/c3ccccc3)cc2N1	0%	0	8%	-1.9%	2	x	u
CCC(=NCc1ccc(Cl)c(Cl)c1)c1nc(-c2ccco2)oc1O	-15%	7	-5%	-0.4%	2	0.2	-64%[inhibitor]
CC(OC(=O)c1cc(=O)[nH]c2ccccc12)C(=O)c1ccccc1 (configuration not stated)	8%	-4	4%	x	-10	-3.1	15%
CCOC(=O)C1(Cc2ccc(OC)cc2)CCN(C(=O)c2ccoc2C)CC1	-1%	-14	-6%	-1.6%	35	1.3	-14%
CC(NS(=O)(=O)c1ccc(Cl)cc1)C(=O)OCC(=O)c1ccc[nH]1 (configuration not stated)	-3%	4	x	-0.3%	6	x	u
COc1cc(Cl)c(C)cc1NC(=O)CSC	-14%	0	8%	-0.5%	-8	3.7	-7%
Cc1ccc(NC(=S)N2CCN(S(=O)(=O)c3ccc(F)cc3)CC2)cc1	-2%	-6	17%	0.8%	0	-2.2	0%[15.4 µM]
NS(=O)(=O)c1ccc(CNC(=O)/C=C/c2cccc(Cl)c2)cc1	2%	-6	21%	-1.4%	-5	3.1	6%
Cc1ccc(C)c(NC(=S)N2CCN(c3ccccn3)CC2)c1	1%	6	-1%	-25%	1	0.9	4%

Assay outcomes from PubChem BioAssay.
